Resorufin fluor: resorufin region autofluorescence. Compound fluorescence, resorufin region 547/598 nm, buffer; stronger effect = higher value. max dye-equivalent concentration, M. 59,000 compounds, 0.04% hits. AID 588; active = above 10 nM dye equivalent; inconclusive = 1 to 10 nM; inactive = 1 nM or less; a few of its hits are not listed in these tables; further: highest value over a series up to 38 µM
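Tris 100 mM pH 8.0; compound added, 15 min RT; CCD imager read, ex 547 nm/em 598 nm; signal normalized to resorufin standard curve (six concentrations per plate) as dye-equivalent concentration.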
TSHR agonist: TSH receptor (human) agonism | P16473 | HEK293-CNG-TSHR cells (CNG channel as cAMP sensor), membrane potential dye, cAMP | Potency, µM (top dose mostly 57.1 µM), inactives show top-dose activation, most hits filed as activators | 73,000 compounds, 0.48% hits; active = well fitted activation curve of enough size with the parental cells flat; inconclusive = any curve in the parental cells; inactive = parental cells flat and receptor cells flat or falling; further: potency means the concentration at half of the fitted maximal effect; % of control where 0% means no effect; weak receptor curves with flat parental cells got no call and are not listed
Target sequence (P16473 whole entry, looked up): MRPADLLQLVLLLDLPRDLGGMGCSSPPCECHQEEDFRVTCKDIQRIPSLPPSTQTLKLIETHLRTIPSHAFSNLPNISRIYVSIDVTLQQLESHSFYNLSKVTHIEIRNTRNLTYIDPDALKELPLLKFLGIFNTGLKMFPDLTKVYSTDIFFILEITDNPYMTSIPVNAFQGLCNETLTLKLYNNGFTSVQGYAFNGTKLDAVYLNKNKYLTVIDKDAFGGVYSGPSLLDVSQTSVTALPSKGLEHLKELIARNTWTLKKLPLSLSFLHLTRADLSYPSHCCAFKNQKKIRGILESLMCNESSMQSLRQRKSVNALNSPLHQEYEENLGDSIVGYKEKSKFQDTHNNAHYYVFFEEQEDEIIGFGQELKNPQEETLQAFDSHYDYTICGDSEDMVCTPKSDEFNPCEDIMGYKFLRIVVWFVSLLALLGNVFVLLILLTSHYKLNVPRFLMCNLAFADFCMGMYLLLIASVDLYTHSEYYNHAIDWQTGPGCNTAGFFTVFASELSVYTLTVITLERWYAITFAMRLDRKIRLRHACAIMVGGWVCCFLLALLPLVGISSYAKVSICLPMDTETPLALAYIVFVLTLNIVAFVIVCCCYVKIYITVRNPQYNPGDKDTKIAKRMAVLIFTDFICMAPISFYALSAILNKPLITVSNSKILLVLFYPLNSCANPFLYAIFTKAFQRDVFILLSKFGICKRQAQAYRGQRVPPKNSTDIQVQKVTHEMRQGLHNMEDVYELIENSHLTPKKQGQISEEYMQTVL
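HEK 293 cells stably expressing TSHR and a modified CNG channel, with CNG-only parental cells as counterscreen, were preloaded 60 min at room temperature with membrane potential dye containing 100 uM RO 20-1724. Compound exposure was 30 min, and depolarization was read as fluorescence at 590 nm.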
A488 autofl: compound autofluorescence in A488 spectral region | compound autofluorescence, A488 spectral region, dye equivalency; stronger effect = higher value | max dye equivalency, M | 59,000 compounds, 0.1% hits; active = above 10 nM dye equivalent; inconclusive = 1 to 10 nM; inactive = 1 nM or less; about half of its hits are not listed in these tables;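 further: highest value over a series up to 38 µM; compound alone in buffer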
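Intrinsic compound fluorescence is measured in 100 mM Tris buffer at pH 8.0 following 15 min incubation at room temperature. Intensities at 480 nm excitation/540 nm emission are calibrated to an on-plate A488 concentration series, giving dye-equivalent concentrations.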
A647 fluor: A647 region autofluorescence; max dye-equivalent concentration, M; 59,000 tested, under 10 active; Compound fluorescence, A647 channel (570/671 nm), Tris buffer; active means above 1 µM dye equivalent; inconclusive means 0.1 to 1 µM; inactive means 0.1 µM or less;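 further: values scaled relative to a standard on each plate; highest value over a series up to 38 µM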
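Compound fluorescence was measured in 100 mM Tris buffer, pH 8.0, after 15 min at room temperature, using 570 nm excitation and 671 nm emission filters. Signal was normalized to a per-plate Alexa 647 standard curve and expressed as dye-equivalent concentration at each compound concentration.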
AID923: qHTS Assay for Allosteric/Competitive Inhibitors of Caspase-1: Spectroscopic Profiling in AFC Spectral Region; AID 923, 2007; compound fluorescence, AFC spectral region (405/520 nm); almost no hit is shown here; Potency, µM (highest dose often 57.5 µM), without a hit: at the top dose fluorescence increase, most hits filed as activators; 75,000 compounds, 1.1% hits; active means well fitted activation curve with a large enough effect; inconclusive means small, poorly fitted or top-dose-only effect;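 further: potency means the concentration at half of the fitted maximal effect; 0% is about no effect; scaled to a free AFC standard on each plate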
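Baseline compound fluorescence (AFC region, 405 nm ex/520 nm em) taken from the intercept of kinetic reads with 50 nM caspase-1 and 5 uM Ac-WEHD-AFC; normalized to an on-plate AFC standard curve; compounds titrated up to 57 uM.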
The depositor's hits bear a star; i = inactive; ? = inconclusive; . = no result given; [ ] = another dose, or the depositor's remark. These rows are one share of the data (hit frequency here may not be typical).

SMILES	Resorufin fluor	TSHR agonist	A488 autofl	A647 fluor	AID923
Clc1ccc(CN2CCCN(Cc3ccc(Cl)cc3)C2c2cc3ccccc3c3ccccc23)cc1	i	17%[11.4 µM]	i	3.5e-09	-2.5%[11.5 µM]
Cc1ccc2c(c1)c1c(n2CC(O)Cn2nc(C)c(Br)c2C)C(=O)CCC1 (stereo not drawn)	i	6%	i	7.4e-09	0.5%
Cc1ccc(N(C(=O)Cn2nnc3ccccc32)C(C(=O)NCc2ccco2)c2cccnc2)cc1 (stereo not drawn)	i	-4%	i	7.4e-09	-2.4%
COc1ccccc1N1CCN(C[C@@H](C(=O)NC(C)(C)C)c2ccccc2)CC1	.	8%	.	.	-1.2%
CCCCN1C(=O)C(O)=C(C(C)=O)C1c1ccc(OC)cc1OC (stereo not drawn)	i	.	i	3.3e-08	.
CCOC(=O)c1cnc2c(C)cccc2c1NCc1ccco1	.	?	.	.	1.5%
CCSC1=C(C#N)C(c2ccc(C)s2)CC(=O)N1 (stereo not drawn)	.	-2%	.	.	0.9%
NCCc1nc(-c2nc(C(=O)O)cs2)cs1	i	0%[11.4 µM]	i	8.3e-09	2.3%[11.5 µM]
COC(=O)C1=C(C)N(Cc2ccco2)C(=O)C1	i	3%	i	3.4e-08	1.3%
Cc1ccc(C(C(=O)NC2CCCC2)N(Cc2ccc(F)cc2)C(=O)c2csnn2)o1 (stereo not drawn)	i	?	i	5.5e-08	0.3%
N#Cc1nc(-c2ccccc2Cl)oc1N1CCCCC1	i	.	i	1e-09	.
CCCC1(CCC)NC(=O)N(CC(=O)Nc2cccc(OC)c2)C1=O	i	-1%	i	2.8e-08	-0.4%
CCOC(=O)c1cc(NC(=O)c2c(C)noc2C)cc(C(=O)OCC)c1	i	1%	i	4.2e-08	0.0%
COc1cccc(NC(=O)N2CCCC2C(=O)NC(C)C)c1 (stereo not drawn)	i	-3%	i	4e-09	2.5%
Clc1ccccc1CNc1ncnc2nc[nH]c12	.	-7%	.	.	1.1%
CC1CN(S(=O)(=O)c2ccc(NC(=O)c3cc(-c4ccccc4O)n[nH]3)cc2)CC(C)O1 (stereo not drawn)	i	-1%	i	1e-09	0.0%
O=C(COc1nnc2ccccn12)N1CCN(S(=O)(=O)c2ccccc2)CC1	i	-6%	i	2.8e-08	-0.8%
Cn1c(NC(=O)CC(C)(C)C)cc(=O)n(C)c1=O	.	16%	.	.	-1.5%
CC1CCN(c2oc(-c3ccccc3F)nc2C#N)CC1	.	?	.	.	2.2%
CCCCNC(=O)CN1C(=O)C(CC)Oc2ccc(Cl)cc21 (stereo not drawn)	i	?	i	5.2e-09	-2.7%
COC(=O)c1c(NC(=O)c2ccc(Br)s2)sc2c1CCC2	i	4%	i	8.9e-09	7.9%
COCC(=O)N1CCC2(CC1)CN(C(=O)Nc1cccc(C#N)c1)C2	i	2%	i	7.9e-09	3.5%
CCCCCSc1nnc(-c2cc(Br)ccc2N)c(=O)[nH]1	i	?	i	2.4e-08	-1.0%
CCOC(=O)C1C(=O)NC(C)C1c1ccccc1 (stereo not drawn)	i	-1%	i	1.8e-08	2.3%
CC(C)(C)NC(=O)CN1CCC(O)(c2ccccc2)CC1	i	-1%	i	1e-09	0.9%
CCN(CCCNC(=O)COc1cc(=O)n(CC)c2ccccc12)c1ccccc1	i	5%[11.4 µM]	i	1e-09	-1.0%
COc1ccc(N(CC(=O)Nc2cccc(C)c2C)S(=O)(=O)c2c(C)n[nH]c2C)cc1	i	3%	i	2.1e-09	-1.9%
O=C(c1ccccc1Cl)N1CCc2ccccc2C1	i	22%	i	6.1e-09	-3.1%
Cc1ccc(NC(=O)Cn2nc(C)c3ccccc3c2=O)cc1F	i	-4%	i	4.4e-08	2.0%
CCOC(=O)c1oc2nc(C)c3c(c2c1N)CC(C)(C)OC3	i	-1%	i	1.9e-08	3.2%
COc1ccc(-c2c(C)oc3c(CN4CCCCC4C)c(O)ccc3c2=O)cc1OC (stereo not drawn)	.	-14%	.	.	6.1%
CCCn1c(=O)n(C)c(=O)c2c(SCc3cc(C(C)=O)ccc3OCC)nc(C3CC3)nc21	i	8%	i	1e-09	3.5%
O=C1CC(N2CCN(c3ccccc3)CC2)C(=O)N1c1ccc2c(c1)OCCO2 (stereo not drawn)	i	-1%	i	1e-09	-2.8%
O=C(CN1c2cccc3cccc(c23)S1(=O)=O)NCc1ccc2c(c1)OCO2	.	19%[11.4 µM]	.	.	2.8%
COCC(=O)N1CCC[C@@]2(CCN(C(=O)Nc3ccc(OC)cc3)C2)C1	i	1%	i	1.5e-08	3.5%
Cc1cc(C)nc(N2CCCC(C(=O)NCc3cccs3)C2)n1 (stereo not drawn)	i	-6%	i	1.8e-08	0.4%
Cc1ccc2c(c1)N(C(C)C(=O)NCCc1ccccc1)C(=O)CO2 (stereo not drawn)	i	3%	i	1e-09	-1.8%
CC1(C)CC(=O)C(C=NCC(N)=O)=C(O)C1	.	1%	.	.	0.8%
Cc1ccc(-c2ccc(=O)[nH]n2)cc1	i	10%	i	1.9e-08	0.2%
CCCCOc1ccc(-c2c(C#N)c(N)nc(SCC(N)=O)c2C#N)cc1	i	-25%	i	3.5e-08	0.9%
Cn1c(N)c(C(=O)COC(=O)C2(c3ccccc3F)CCCC2)c(=O)n(C)c1=O	i	25%	i	2.9e-08	-0.1%
COc1ccccc1S(=O)(=O)n1cc(Cc2ccccc2)c(N)n1	i	16%	i	4.1e-08	0.6%
O=C(c1ccc(CS(=O)(=O)c2ccc(Br)cc2)o1)N1CCCCCC1	.	20%	.	.	0.8%
O=C(Nc1ccc2c(c1)OCO2)c1cccs1	i	13%	i	4.7e-09	1.0%
CCOC(=O)N1CCC(NC(=O)c2ccc3c(c2)N(C)CCS3)CC1	i	-4%	i	4.7e-08	14%

Part of the list above in order of molar mass, descending:
SMILES	Resorufin fluor	TSHR agonist	A488 autofl	A647 fluor	AID923
CCCn1c(=O)n(C)c(=O)c2c(SCc3cc(C(C)=O)ccc3OCC)nc(C3CC3)nc21	i	8%	i	1e-09	3.5%
O=C(c1ccc(CS(=O)(=O)c2ccc(Br)cc2)o1)N1CCCCCC1	.	20%	.	.	0.8%
COc1ccc(-c2c(C)oc3c(CN4CCCCC4C)c(O)ccc3c2=O)cc1OC (stereo not drawn)	.	-14%	.	.	6.1%
O=C1CC(N2CCN(c3ccccc3)CC2)C(=O)N1c1ccc2c(c1)OCCO2 (stereo not drawn)	i	-1%	i	1e-09	-2.8%
COCC(=O)N1CCC[C@@]2(CCN(C(=O)Nc3ccc(OC)cc3)C2)C1	i	1%	i	1.5e-08	3.5%
CC1(C)CC(=O)C(C=NCC(N)=O)=C(O)C1	.	1%	.	.	0.8%

(further entries)
SMILES	Resorufin fluor	TSHR agonist	A488 autofl	A647 fluor	AID923
CCOC(=O)c1ccc(CNC(=O)CSc2nnnn2-c2ccc(Cl)cc2)o1	i	?	i	3.7e-08	-0.5%
N[C@@H](CSS(=O)(=O)O)C(=O)O	.	2%	.	.	4.8%
NCCCCCNC(=O)/C=N\O	i	-6%	i	3.7e-08	-1.6%
CCCOc1ccc(Cc2nn[nH]n2)cc1	i	.	i	1e-09	.
c1ccc2nc3c(nc2c1)CCc1nonc1-3	i	-8%	i	1.2e-08	-1.0%
Cc1ccsc1C(=O)OCc1csc(-c2ccccc2)n1	i	?	i	1e-09	-0.7%
O=C(NCC1CCCO1)c1nn2cccnc2c1Cl (stereo not drawn)	i	-2%	i	2.2e-09	0.8%
COc1ccc(OC)c(Nc2nc(-c3sc(N)nc3C)cs2)c1	i	-29%	i	1.2e-08	2.0%
CC(=O)Oc1ccc(C(=O)Nc2nccs2)cc1	.	-7%	.	.	-0.2%
O=C1OC(O)C(C(Cl)Cl)=C1Cl (stereo not drawn)	.	2%	.	.	-2.0%
CCOc1ccccc1C(=O)NC(C(=O)OCC(=O)Nc1nnc(-c2ccccc2)o1)C(C)C (stereo not drawn)	i	?	i	4.5e-09	0.6%
C=C(C)CSc1nc2c(cc1C#N)CCC2	.	21%	.	.	-0.4%
COc1ccc(-c2onc(C)c2-c2ccc(C(=O)OC(C)C)o2)c(O)c1	i	-2%	i	6.7e-09	-2.6%
COc1ccc(-c2cc(C(=O)N3CCCCC3)no2)cc1OC	i	-1%[11.4 µM]	i	1e-09	-2.2%
CC(C)Oc1ccc(CC2CC(=O)NC2=O)cc1 (stereo not drawn)	i	-8%	i	1.6e-09	0.4%
COc1ccc(Cl)cc1C(=O)CSc1nnnn1C1CCCC1	i	10%	i	2e-08	12%
Nc1n[nH]c(-c2ccc(F)cc2)n1	i	3%	i	7e-09	-1.0%
O=C(c1ccco1)N1CCN(C(=O)C2CC(c3ccc(F)cc3)=NO2)CC1 (stereo not drawn)	.	-5%	.	.	0.9%
Cc1ccc(-n2ncc3c(=O)n(Cc4ccccn4)cnc32)cc1C	i	15%	i	1e-09	0.5%
CCOc1ccccc1OCC(=O)Nc1ccc(N2CCCCC2)cc1	i	14%	i	2e-08	-2.3%
CC(C)=CCC/C(C)=C/CO/N=C1/C[C@@H](O)[C@@H](O)[C@@H]2[C@@H]3C(=O)N(C[C@@H]4CCCO4)C(=O)[C@H]3CC[C@@H]12	.	-15%[11.4 µM]	.	.	-0.2%[11.5 µM]
O=C(Nc1ccc(F)c(F)c1)NC1CCCCC1	i	15%	i	1e-09	1.0%
C=CCOc1cccc(C2c3c(oc4ccccc4c3=O)C(=O)N2c2ccccn2)c1 (stereo not drawn)	.	-7%	.	.	0.4%
Cn1nnnc1SCC(=O)NCC(=O)c1ccccc1	i	.	i	1e-09	.
N#Cc1nc(COc2ccccc2F)oc1NCc1ccc(F)cc1	.	?	.	.	2.9%
COc1ccc(N2CCN(C(=O)c3ccc4c(=O)n(CC5CCCO5)c(=O)[nH]c4c3)CC2)cc1 (stereo not drawn)	i	-1%	i	1.2e-09	1.0%
COC(=O)c1cc2nc(-c3ccc(OC)c(OC)c3)cc(C(F)(F)F)n2n1	.	12%	.	.	0.6%
CC1=C(C(=O)OC2CCCCCCC2)C(c2cccc(O)c2)NC(=O)N1 (stereo not drawn)	.	-3%[11.4 µM]	.	.	-3.7%
O=C(Cn1[nH]c(=O)c2ccccc2c1=O)NCc1cccnc1	i	1%	i	2.5e-08	-0.4%
CCCC(=O)NCCc1c2n(c3ccc(OC)cc13)CCCc1ccccc1-2	i	?	i	9.8e-09	-0.5%
CCc1nc(NCCN2CCOCC2)c(C#N)c2c1CCCC2	i	.	i	1.3e-09	.
CCOc1ccc(NC(=O)CSc2nc3cccnc3n2CC)cc1	i	13%	i	4e-08	-3.1%
Cn1nnnc1SCCNCC#Cc1ccccc1	i	1%	i	3.2e-08	1.0%
Cc1onc(-c2ccccc2Cl)c1C(=O)N1CCc2ccccc21	.	?	.	.	2.6%
COc1cc(-c2nnc(SCC(=O)c3ccccc3)o2)cc(OC)c1OC	i	29%	i	1e-09	1.6%
COCCN1Cc2cccc(C(=O)NC3CCCCCC3)c2C1=O	i	2%	i	2.9e-08	-2.2%
CCn1c(Cc2ccccc2)nnc1SCC(=O)Nc1cc(C)on1	i	6%	i	5.7e-08	-1.2%
COC(=O)[C@@]1(Cc2ccc(OC)cc2)[C@H]2c3cc(C(=O)N(C)C)n(CCF)c3C[C@H]2CN1C(=O)c1ccccc1	.	?	.	.	1.0%
Cc1cc(NS(=O)(=O)c2ccc(NC(=O)CCc3ccccc3)cc2)no1	i	-7%	i	6.1e-08	-0.1%
CC(=O)OC[C@H]1O[C@@H](O/N=C(\C)CCC(=O)OC[C@@H]2O[C@H](C#Cc3ccccc3)C=C[C@@H]2Oc2ccc(C)cc2)[C@H](OC(C)=O)[C@@H](OC(C)=O)[C@H]1OC(C)=O	.	-6%[11.4 µM]	.	.	1.1%[11.5 µM]
CCOc1ccc(NC(=O)CCC(=O)OC)cc1	.	4%	.	.	1.4%

Compound activity (PubChem)
